Bioassay records as filed in PubChem BioAssay.
Vif A3G: inhibitors of Vif binding to APOBEC3G peptide, primary screen, biochemical, TR-FRET, GST-Vif 1-94, biotin-A3G peptide, dose response retest (AID 1117319); 260,000 compounds, 0.57% hits; one-dose inhibition, %; IC50 in µM for titrated hits; TR-FRET GST-Vif / biotin-A3G peptide binding; higher % means a stronger effect; test concentration not given here; strong numbers were not always called active; Virion infectivity factor (Human immunodeficiency virus type 1 group M subtype B (isolate …;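 active = above the screen mean plus three standard deviations and confirmed in dose response; inconclusive = results disagree or hit not tested in dose response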;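 note: Vif residues 1-94 fused to GST binding biotinylated APOBEC3G peptide 110-148; 0% = full assay without inhibitor and 100% = GST in place of GST-Vif; retest series ran down from 100 µM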
Ecoli growth: E. coli growth inhibition, primary screen, OD600; Escherichia coli growth, 23 h; stronger effect = lower value; OD600 absorbance (no concentration beside the values); 330,000 compounds, 0.21% hits;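 active = OD600 absorbance below the run mean of sample wells minus 3.6 SD, in any replicate, cut at about 0.56 in these data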;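 note: stock transfer was 300 nL into about 60 µL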
FGF22 binding: binders of human FGF22 protein, primary screen, FGF22 synaptogenesis inhibitor project, biophysical, thermal shift, single point. 340,000 compounds, 1.5% hits. recombinant FGF22 thermal shift, SYPRO orange fluorescence; percent of sucrose octasulfate shift, DMSO zero. Fibroblast growth factor 22 (Homo sapiens), Q9HCT0. calls only at 9.99 µM;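 active = melting point raised past a set limit in the mean and every replicate; inconclusive = no clear call; three in four hits are not shown here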
Target sequence (Q9HCT0 whole entry, looked up): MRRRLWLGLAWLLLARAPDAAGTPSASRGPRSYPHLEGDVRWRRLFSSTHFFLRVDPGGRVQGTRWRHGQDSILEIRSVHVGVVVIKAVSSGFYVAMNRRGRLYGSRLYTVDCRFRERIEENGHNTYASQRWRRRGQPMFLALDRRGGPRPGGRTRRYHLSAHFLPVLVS
AF4-AF9 inh: inhibitors of AF4 peptide binding to AF9, primary screen, biochemical, AlphaScreen, biotin-AF4 peptide, FLAG-AF9, single point; Protein AF-9 (Homo sapiens), P42568; inhibition, % at 10 µM; 350,000 compounds, 0.47% hits; AID 651704, 2012;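 active = every replicate reaching a set inhibition limit, whatever the replicate mean, cut at about 25% in these data; inconclusive = mean inhibition reaches that limit but some replicates miss it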;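 note: 0% = plate neutral control median and 100% = total signal loss; the record names both 10 and 1 µM as test concentration; the first replicate is given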
HNF4A DNA FP: change in binding of human HNF4A to DNA, primary screen, biochemical, fluorescence polarization, FITC-DNA | 1 h | activity change, % at 10 µM | 360,000 compounds, 0.3% hits | AID 1224865, 2016 | Hepatocyte nuclear factor 4-alpha (Homo sapiens), P41235; in the data active = activity change above about 30%, passing the limit was not always enough;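 note: controls were the assay level and a saturating level of protein; the project sought stronger binding though the title names inhibitors; some compounds called inactive have numbers as strong as hits; positive values seem to mean higher polarization but the record does not say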
Target sequence (P41235 whole entry, looked up): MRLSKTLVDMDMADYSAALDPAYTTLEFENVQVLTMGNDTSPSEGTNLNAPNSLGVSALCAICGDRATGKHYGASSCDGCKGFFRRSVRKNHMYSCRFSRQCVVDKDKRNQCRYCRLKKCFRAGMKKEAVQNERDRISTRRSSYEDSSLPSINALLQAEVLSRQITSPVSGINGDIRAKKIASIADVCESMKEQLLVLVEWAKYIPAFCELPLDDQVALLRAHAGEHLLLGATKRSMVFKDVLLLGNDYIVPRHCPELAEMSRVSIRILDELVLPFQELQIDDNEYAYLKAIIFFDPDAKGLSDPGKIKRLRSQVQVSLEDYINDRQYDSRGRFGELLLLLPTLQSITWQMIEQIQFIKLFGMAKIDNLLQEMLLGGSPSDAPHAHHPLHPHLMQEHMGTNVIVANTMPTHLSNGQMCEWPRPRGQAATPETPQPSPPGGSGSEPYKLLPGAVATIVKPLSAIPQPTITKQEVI
ALR H2O2 inh: inhibitors of human ALR sulfhydryl oxidase, primary screen, biochemical, H2O2 detection, HRP-luminol luminescence, single point; purified ALR, DTT oxidation; AID 485317, 2010; 290,000 compounds, 3.8% hits; inhibition, % (test concentration not listed); FAD-linked sulfhydryl oxidase ALR (Homo sapiens), P55789;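 active = mean and each replicate at 75% or more; inconclusive = only one of the two met; inactive = neither met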;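 note: stock transfer was 7.5 nL into about 7.5 µL; 0% = neutral wells and 100% = wells with inactivated enzyme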
Target sequence (P55789 whole entry, looked up): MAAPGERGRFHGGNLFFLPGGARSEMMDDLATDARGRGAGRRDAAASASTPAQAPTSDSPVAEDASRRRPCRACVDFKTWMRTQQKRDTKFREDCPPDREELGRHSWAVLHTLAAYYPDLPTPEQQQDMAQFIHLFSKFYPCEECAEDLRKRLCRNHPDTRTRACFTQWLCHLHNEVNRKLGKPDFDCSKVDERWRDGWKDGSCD
Ecoli rRNA inh: reduced GFP signal of wild-type E. coli, primary screen, bacterial rRNA inhibitor project, GFP/RFP fluorescence, OD600, single point. E. coli WT GFP vs humanized-ribosome RFP mutants, 24 h; stronger effect = lower value; DMSO median 0, no signal -100. GFP signal change (wild-type ribosome), % (no concentration beside the values). 350,000 compounds, 1.6% hits. AID 720706, 2013;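 active = significant combined selectivity score with lowered wild-type GFP, culture density cut under 30%, mutant RFP and density less affected; inactive = any of these conditions unmet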; note: one replicate is shown; some compounds called inactive have numbers as strong as hits
Ecoli rRNA inh OD600: further read-out of Ecoli rRNA inh, marked with its call; OD600 change, %; measured here: OD600 growth;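 optical density of the mix in the first replicate; 0 = DMSO median and -100 = no signal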
Ecoli rRNA inh RFP: recorded beside Ecoli rRNA inh, whose call it bears; RFP signal change, %; measured here: RFP humanized mutant strains;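 first replicate; 0 = DMSO median and -100 = no signal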
The depositor's hits bear a star; i = inactive; ? = inconclusive; . = no result given; & = joins results of further samples. A portion of the library; rates above refer to the full screens.

SMILES	Vif A3G	Ecoli growth	FGF22 binding	AF4-AF9 inh	HNF4A DNA FP	ALR H2O2 inh	Ecoli rRNA inh	Ecoli rRNA inh OD600	Ecoli rRNA inh RFP
C[C@H](CO)N1C[C@H](C)[C@@H](CN(C)CC2CC2)OCCCC[C@H](C)Oc2ccc(NS(=O)(=O)c3ccccc3)cc2C1=O	.	.	i	3.0	.	.	0	3	0.3
O=[N+]([O-])c1ccc2c(c1)Cc1cc(F)ccc1-2	-12%	0.66	i	-2.2	-2.3	.	.	.	.
N#C/C(=C/c1ccc(-c2ccc([N+](=O)[O-])cc2)o1)C(=O)Nc1nc(-c2cccs2)cs1	0%	0.7	i	-0.4	-6.6	.	-30	-54	24
COC(=O)[C@@]12C[C@@H](CC(=O)NCCC(C)C)C(=O)N(Cc3ccc4c(c3)OCO4)C1=CCC(C)(C)C2	.	.	i	1.2	0.5	.	-4	-22	-0.4
C[C@H]1CN([C@@H](C)CO)C(=O)c2cccc(NC(=O)c3nc4ccccc4s3)c2O[C@@H]1CN(C)Cc1ccncc1	.	.	i	4.8	.	.	-10	-3	-1.1
Cc1cc[n+](C(C)C(=O)c2ccc(-c3ccccc3)cc2)cc1 (stereo not drawn)	18%	0.62	i	2.8	1.7	-15	-26	-17	26
Cc1nc(N2CCN(c3ccccc3)CC2)nc2c1C(=O)CCC2	23%	0.64	.	.	2.5	68	.	.	.
O=C(C1COc2ccccc2O1)N1CCn2c(nc3ccccc32)C1 (stereo not drawn)	6%	0.76	i	-1.7	0.2	8	-14	-7	1.8
Cc1ccc2nc(-c3cccnc3)oc2c1	15%	0.67	.	.	-1.4	-6	.	.	.
COc1cccc2sc(N3CCN(C(=O)c4cccs4)CC3)nc12	-7%	0.71	i	1.6	-0.1	-12	-13	-22	-0.3
COc1ccc(NC(=O)Nc2cccc3c2O[C@H](CN(C)S(=O)(=O)c2cccs2)[C@H](C)CN([C@@H](C)CO)C3=O)cc1	.	.	i	3.0	.	.	-2	-3	-1.6
O=C(NCc1ccccc1)NC1(C(=O)N2CCN(c3ncccn3)CC2)CCCCC1	-7%	0.65	.	.	-0.3	-1	.	.	.
COc1ccc(NC(=O)C2C(c3ccccc3)C2(Cl)Cl)c(OC)c1 (stereo not drawn)	.	0.71	i	2.6	-1.7	-17	6	12	-1.3
CCCCCCNC1=NCCS1	-2%	0.62	i	3.5	3.7	2	17	2	0.1
CCOc1ccc(NC(=O)CCSc2nnc(C)s2)cc1	2%	0.7	.	.	-2.2	-14	.	.	.
COCC#Cc1cnc2c(c1)C(=O)N([C@H](C)CO)C[C@H](C)[C@H](CN(C)C(=O)Cc1ccccc1)O2	.	.	i	-3.1	.	.	4	5	-1.0
CCOC(=O)c1ccc(NC(=O)c2sc3nc(N4CCOCC4)c4c(c3c2N)CCCC4)cc1	4%	0.75	i	-0.3	-3.3	-3	9	8	2.9
O=C(COc1ccc2ccccc2c1)NN1C(=O)c2ccccc2C1=O	.	0.7	.	.	4.5	-9	.	.	.
Cc1c(Br)c([N+](=O)[O-])nn1C(C)C(=O)NCc1ccco1 (stereo not drawn)	.	0.64	.	.	0.4	-2	.	.	.
CC(=O)N1N=C(c2ccc(C)cc2)OC1c1ccc(C)cc1 (stereo not drawn)	-2%	0.68	.	.	-1.5	-2	.	.	.

Taken from above.
O=C(NCc1ccccc1)NC1(C(=O)N2CCN(c3ncccn3)CC2)CCCCC1 @ Vif A3G: -7%
Cc1ccc2nc(-c3cccnc3)oc2c1 @ HNF4A DNA FP: -1.4
CCOc1ccc(NC(=O)CCSc2nnc(C)s2)cc1 @ ALR H2O2 inh: -14

New compounds follow:
SMILES	Vif A3G	Ecoli growth	FGF22 binding	AF4-AF9 inh	HNF4A DNA FP	ALR H2O2 inh	Ecoli rRNA inh	Ecoli rRNA inh OD600	Ecoli rRNA inh RFP
Nc1ccncc1N	.	.	i	1.4	-0.1	.	.	.	.
CC(=O)N/C(=N\c1nc(C)cc(C)n1)Nc1ccc2ccccc2c1	.	.	i	2.9	-8.2	-24	5	3	7.2
CC(C)CCN(C(=O)CNC(=O)c1cccs1)C(C(=O)NC1CCCCC1)c1cccnc1 (stereo not drawn)	-5%	0.68	i	1.4	-4.5	-4	5	3	4.4
CC(=O)c1ccc(NC(=O)c2ccc3c(Cl)c4c(nc3c2)CCCC4)cc1	-9%	0.71	.	.	139	-4	.	.	.
CCCNC(=O)N(C)C[C@H]1Oc2ncc(C#C[C@@H](C)O)cc2C(=O)N([C@@H](C)CO)C[C@H]1C	.	.	i	-3.0	.	.	8	7	-2.6
CCOc1ccc(S(=O)(=O)N(C)c2ccc(OCC(=O)NCC3CCCCC3)cc2)cc1	.	0.71	i	-0.3	3.4	-3	.	.	.
CCN1C(=O)C(CC(=O)Nc2c(C)cccc2C)Nc2cc(S(=O)(=O)N(C)C)ccc21 (stereo not drawn)	?	0.69	i	2.0	-7.6	2	0	-1	1.4
CCc1nn(CC(=O)NCCc2ccc(Cl)cc2)c(=O)c2cccn12	2%	0.65	i	-1.3	1.6	-1	-15	-18	-1.5
COc1ccc2cc(CO)c(Cl)nc2c1	25%	0.69	i	-1.5	1.4	0	-2	1	-2.0
CCCc1[nH][nH]c(=O)c1C(c1cccc(Cl)c1)C(C#N)C#N (stereo not drawn)	7%	0.7	.	.	2.6	19	.	.	.
CCNC(=S)N/N=C/c1cn(Cc2ccc(F)cc2)c2ccccc12	.	.	i	5.6	2.8	-9	.	.	.
CCCCOCCCNC(=S)Nc1ccc(S(=O)(=O)N2CCOCC2)cc1	-10%	0.63	i	-6.1	3.9	-4	-5	0	9.4
CCCN1C[C@H](C)[C@H](OC)CN(C)C(=O)c2ccc(NC(=O)c3cccc(OC)c3)cc2OC[C@H]1C	.	.	i	-0.2	.	.	1	0	-2.2
CCOC(=O)c1c(C)[nH]c(C(=O)NCC(c2ccco2)N2CCCCC2)c1C (stereo not drawn)	.	0.66	i	3.3	0.0	-3	3	1	-0.6
Cc1noc(C)c1-c1nc(CS(=O)(=O)c2ccccc2)no1	-1%	0.67	i	-2.5	6.1	-2	24	16	1.9
CC1Cc2ccccc2N1C(=O)c1cc2c(=O)n3ccccc3nc2n1C (stereo not drawn)	-3%	0.73	.	.	4.0	3	.	.	.
COc1ccc(CNC(=O)Cn2cnc3c(SC)nc(N)nc32)cc1	-9%	0.73	i	-1.0	-5.2	.	7	-4	1.5
O=C(O)CCc1nc(-c2ccccc2)no1	-6%	0.68	.	.	-5.0	-7	.	.	.
Cc1cc(Oc2ccc(Cl)cc2)nc(-c2ccccc2O)n1	12%	0.68	.	.	4.7	-3	.	.	.
Cn1c(-c2ccc(C(=O)c3ccccc3)s2)nc2ccccc21	.	0.72	.	.	-2.7	-2	18	10	-1.7
O=C(CCN1C(=O)C2CCCCC2C1=O)N1CCN(S(=O)(=O)c2ccccc2)CC1 (stereo not drawn)	4%	0.71	i	-3.9	5.2	7	5	2	-0.4
CC(=O)N(C)C[C@@H]1Oc2ncc(-c3ccc(C#N)cc3)cc2C(=O)N([C@@H](C)CO)C[C@H]1C	.	.	i	-5.5	.	.	4	10	0.5
COc1ccc2c3c([nH]c2c1)[C@@H](CO)N(C(=O)c1cccnc1)CC31CCN(Cc2ccccc2)CC1	.	.	i	1.7	.	.	0	2	1.7
COc1ccc(CNC(=O)OC2CC3CC2[C@H]2CCCCN2C3=O)cc1 (stereo partly drawn)	.	.	i	3.0	6.2	.	8	-5	2.3
Cc1ccccc1C(=O)Oc1ccccc1C(=O)N1CCOCC1	.	0.69	.	.	2.2	0	.	.	.
CCC(=O)N1CCc2cc(S(=O)(=O)NC(C(=O)NCc3ccc(F)cc3)C(C)C)ccc21 (stereo not drawn)	-11%	0.68	.	.	-2.3	-11	.	.	.
Cc1cc(C)n(-c2ccc(C(=O)N3CCN(S(=O)(=O)c4ccc(OC(F)(F)F)cc4)CC3)cc2)n1	.	.	i	-0.5	2.0	.	0	0	0.4
O=C(OCC#CCSc1nnc(-c2cccc3ccccc23)o1)c1ccc(Br)cc1	.	0.72	i	1.5	0.2	4	4	10	-0.6
O=S(=O)(c1cccc(F)c1)N1CCCN(c2ccc(C(F)(F)F)cn2)CC1	.	0.63	i	-1.9	2.2	2	-32	-36	-2.5
O=C(O)c1cc(C(F)(F)F)nc2ccccc12	.	0.61	i	-8.9	-0.8	-9	5	0	0.9
COc1cc(CN2CCC(n3nccc3NC(=O)C3CC3)CC2)cc(OC)c1	.	0.73	i	-0.4	0.7	-11	4	5	-0.3
COc1ccc(-c2noc(CCC(=O)N3CCC(c4cc(C)ccc4C)CC3)n2)cc1	5%	0.71	i	3.8	1.9	.	-6	-8	-2.7
COc1ccc(CC(=O)NC(C)c2ccc(S(N)(=O)=O)cc2)cc1S(=O)(=O)N1CCOCC1 (stereo not drawn)	.	0.75	i	-1.2	-2.3	-5	15	14	-1.5
O=C(COc1ccc(Cl)cc1)Nc1ccccc1Cl	.	0.66	i	-0.8	-6.6	-10	0	-3	-2.7
C[C@H](CO)N1C[C@H](C)[C@@H](CN(C)C(=O)C2CCCCC2)Oc2ncc(C#CC3CCCC3)cc2C1=O	.	.	i	3.1	.	.	-2	14	-3.4
c1ccc(OCCOc2cccc3cccnc23)cc1	8%	0.68	i	2.3	4.4	17	-19	-20	5.1
COc1ccc2c(c1C)CCC(C)(C#N)C2=O (stereo not drawn)	-11%	0.65	i	4.8	-0.4	.	-9	-21	-0.4
Cn1cc(C(=O)N2CCc3ccccc3C2)c(=O)c2cc(S(=O)(=O)N3CCOCC3)ccc21	?	0.67	i	-0.3	1.8	.	9	4	4.1
Cc1ccccc1S(=O)(=O)N1CC[C@@H]2[C@H]1c1cc(-c3ccc(C#N)cc3)ccc1N[C@@H]2CO	.	.	i	-3.0	.	.	-3	-1	3.8
CC(=O)Nc1cccc(NC(=O)CSc2nnc(Cc3cccn3C)n2CCc2ccccc2)c1	18%&-8%	0.73	.	.	-0.4	-6	.	.	.
CCOc1ccc(N2CC(C(=O)NCCc3ccccc3)CC2=O)cc1 (stereo not drawn)	.	0.68	i	-1.0	3.1	-3	0	-6	-2.2
O=C(O)c1ccc(NC2=C/C(=N/S(=O)(=O)c3ccccc3)c3ccccc3C2=O)cc1	21%	.	i	14	0.0	.	-51	-72	-18
Cc1nc(NC(=O)/C=C/c2ccccc2)n[nH]1	-6%	0.67	i	-0.7	2.7	-6	21	12	1.9
CC(C)CCOCC(=O)Nc1cccc(C(=O)O)c1	22%	0.72	.	-0.7	0.1	-7	.	.	.
Cc1cc2cc(CNS(=O)(=O)c3ccccc3)ccc2n1C	16%	0.72	i	6.1	-6.7	96*	2	-12	29
COc1ccc(C(=O)NCC(=O)N/N=C/c2cn[nH]c2-c2ccccc2)cc1	2%	.	i	2.3	-3.6	2	3	1	-2.0
